Source: PubChem BioAssay (ICCB-Longwood Screening Facility, Harvard Medical School)
HCMV NEC inh: inhibitors of HCMV UL50-UL53 interaction, biochemical, HTRF; actives 0.15% (n = 190,000); AID 1918969, 2023; inhibition, % (test concentration not listed); HCMV UL50-UL53 nuclear egress complex (human cytomegalovirus); normalized percent inhibition;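 active = both replicates at 50% or more, plus weaker picks with an unusually low signal ratio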;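 note: stock transfer was 100 nL into about 20 µL; 0% = negative control wells and 100% = wells with untagged competitor protein; inactives centre near -12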
Sa growth inh: S. aureus growth inhibition at 42 and 30 °C, primary screen, LtaS inhibitor project, RN4220, two temperatures; OD600, 20 h, 42 °C; active compounds read low; relative growth, % (concentration not given with the values); actives 0.53% (n = 170,000);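 active = growth at 42 °C up to 50% and 20 or more points under that at 30 °C, or under 10% at both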;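 note: 300 nL library stock went into each well; scaled to the means of positive and negative controls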
GIV Gai3 FP: inhibitors of GIV peptide binding to Galpha-i3, primary screen, biochemical, fluorescence polarization, FITC-GIV GBA peptide, rat Galphai3; Guanine nucleotide-binding protein G(i) subunit alpha-3 (Rattus norvegicus), P08753; 90 min; active compounds read low; scaled: aluminum fluoride 0%, vehicle 100%; percent of control (FP), % (concentration not given with the values); actives 0.42% (n = 210,000);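 active = replicate mean at 85% of control or lower, very high polarization wells dropped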;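 note: wells of about 15 µL received 100 nL stock; the first replicate is given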
Target sequence (P08753 whole entry, looked up): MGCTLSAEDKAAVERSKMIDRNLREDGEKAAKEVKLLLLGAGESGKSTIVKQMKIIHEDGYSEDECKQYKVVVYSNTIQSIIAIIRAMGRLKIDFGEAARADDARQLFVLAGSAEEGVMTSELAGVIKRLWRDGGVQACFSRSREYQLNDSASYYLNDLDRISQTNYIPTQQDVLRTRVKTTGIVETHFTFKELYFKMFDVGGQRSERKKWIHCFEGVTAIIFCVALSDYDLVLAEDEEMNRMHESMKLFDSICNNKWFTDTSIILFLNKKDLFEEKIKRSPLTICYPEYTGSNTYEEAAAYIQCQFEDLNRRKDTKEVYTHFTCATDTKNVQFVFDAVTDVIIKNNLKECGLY
Sa growth inh second temp: recorded beside Sa growth inh, whose call it bears; relative growth, %; measured here: growth at 30 °C;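 optical density after 20 h as mean of two plates; 100% = untreated growth and lower means inhibition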
Starred values were filed as active, the others as inactive; / = no result given; & = joins results of further samples. Rows were taken by chance. Share with any hit: about 0.85%.

cpd	mol	GIV Gai3 FP	HCMV NEC inh	Sa growth inh second temp	Sa growth inh
1	OCCSc1c(F)c(SCCO)c(SCCO)c(F)c1SCCO	103	-14	79	89
2	O=C(c1ccc2snnc2c1)N1CCCCC1	97	-6&-8	91	103
3	NC(=O)CSc1nnnn1CC(CC(=O)O)c1ccccc1 (stereo not given)	99	10	87	92
4	CCC1CCCCN1C(=O)COC(=O)c1nc(Cl)c(Cl)c(N)c1Cl (stereo not given)	/	-14	82	79
5	O=C(Nc1ccc2oc(-c3ccccc3Br)nc2c1)c1ccc2c(c1)OCCO2	107&100	-19&2	/	/
6	CC(=O)NCCc1c[nH]c2ccc(OCc3ccccc3)cc12	98	-7	/	/
7	O=C(NCCc1csc2nc(-c3ccccc3F)nn12)c1ccco1	102	/	86	84
8	O=C(O)c1csc(-c2ccccc2)c1Cc1ccccc1	101	4	33	54
9	CC1CC(C)CN(CCCNC(=O)C2CCCN(c3nnc(N4CCCC4=O)s3)C2)C1 (stereo not given)	99	-17	89	114
10	CCN(CC)C(=Nc1ccccc1)Nc1ccccc1	101	16	96	95
11	Cn1cc(Cl)c(C2NN=C(SCC(=O)Nc3ccccc3)S2)n1 (stereo not given)	113	4	75	109
12	Cc1cccc(NC(=O)C(NS(=O)(=O)c2cccc3nsnc23)c2ccccc2)c1C (stereo not given)	109	-26	91	121
13	O=C1NC(=Nc2ccc(F)cc2)S/C1=C/c1ccc(N2CCCC2)o1	/	-22	47	103
14	O=C(O)C1C(c2ccccc2)C(C(=O)N2CCOCC2)C1c1ccccc1 (stereo not given)	/	0	93	108
15	COc1cccc(C2C3=C(Nc4c2c(=O)n(C)c(=O)n4C)c2ccccc2C3=O)c1 (stereo not given)	95	-49	82	84
16	COc1cc(C2Nc3ccccc3NC3=C2C(=O)CC(c2ccccc2)C3)cc(Br)c1O (stereo not given)	106	-22	/	/
17	COc1ccc(S(=O)(=O)Nc2ccccc2C(=O)NN2CCOCC2)cc1OC	/	-8	93	107
18	COc1ccc(-c2ccc(CNCCN3CCOCC3)o2)cc1Cl	102	-20	90	104
19	CCOC(=O)C1=C(C)N=c2s/c(=C\c3ccc(O)c(Br)c3)c(=O)n2C1c1ccc2c(c1)OCO2 (stereo not given)	150	-18	/	/
20	CCc1ccc(C2CC(=O)NC(NC(=O)c3ccc(C(C)(C)C)cc3)=N2)cc1 (stereo not given)	102	0	95	101
21	Cc1cc(NC(=O)c2cc(-c3ccc(Br)cc3)on2)nn1Cc1ccc(Cl)cc1	98	14	102	97
22	O=C(O)C1CSC(c2cccc(OCc3ccc(F)cc3)c2)N1 (stereo not given)	96	-4	/	/
23	CC(C)(C)NC(=O)COc1ccc(CO)cc1	101	-12	100	97
24	COC(=O)[C@@H](Cc1c[nH]c2ccccc12)NC(=O)c1ccc2c(c1)OCO2	/	-34	91	105
25	CCN(CC)c1ncnc(Cl)c1Cc1ccc(OC)cc1	97	-14	100	99
26	COc1ccc(Nc2nccc(-c3cccc(C#N)c3)n2)cc1	110	-24	85	94
27	COc1cccc(CNC(=O)C(NS(=O)(=O)c2cccc3nsnc23)c2ccccc2)c1 (stereo not given)	99	-55	90	121
28	CCOc1ccccc1NC(=O)c1c(C)oc2ccc(OC)cc12	103	5	/	/
29	COc1nc(OC)nc(N2CCN(c3cccc(C(F)(F)F)c3)CC2)n1	96	-4	85	83
30	Cc1cc(=O)[nH]c2nnc(SCc3cccc(C(F)(F)F)c3)n12	97	/	105	98
31	COc1cc(/C=C2\SC(=O)N=C2N)ccc1O	138	-80	86	96
32	COc1ccc(CCNC(=O)c2c(C)oc3ncn(CC(C)C)c(=O)c23)cc1OC	105	/	89	80
33	COc1ccc(CCNC(=O)CSCc2nc(-c3cccc(C)c3)oc2C)cc1OC	101	-30	83	85
34	COc1ccc(C(=O)Nc2cccc(C(=O)OCc3cc(=O)n4nc(C5CC5)sc4n3)c2)cc1	116	/	85	96
35	CCOc1ccc2c(c1)c(=O)c(S(=O)(=O)c1ccc(CC)cc1)cn2CC	106	-36	84	98
36	CC(C)C(=O)OC1=CN(Cc2ccccc2)S(=O)(=O)c2ccccc21	99	-17	82	100
37	COc1ccc2c(CC(=O)OCC(=O)c3cc(C)n(-c4ccc5c(c4)OCO5)c3C)coc2c1	/	3	102	96
38	Cn1ccnc1SCC(=O)Nc1ccc2nc(SCc3ccccc3F)sc2c1	106	-14	/	/
39	Cc1ccc(NC(=O)N2CCN(Cc3ccc4nccnc4c3)CC2)cc1	104	-35	/	/
40	COc1cc(/C=C2\N=C(c3ccccc3)OC2=O)cc(Br)c1OCc1c(C)no[n+]1[O-]	/	-31	92	78
41	Cc1ccc(NC(=O)N2CCC(C)(C(=O)NCc3ccc4c(c3)OCO4)CC2)c(Cl)c1	96	-1	/	/
42	Cc1ccccc1NC(=O)c1cc2c([nH]c1=O)CC(C)(C)CC2=O	101	3	89	89
43	CCOC(=O)c1ccc(N2C(=O)CC(SCC(=O)Nc3ccc(S(N)(=O)=O)cc3)C2=O)cc1 (stereo not given)	/	-34	67	72
44	O=C(CSc1cccc[n+]1[O-])c1ccc2c(c1)-c1ccccc1C2	/	13	98	95
45	Cc1ccc2nc(SCC(=O)NC(C)C)nc(=O)n2c1	106	-4	96	100
46	O=C(CSc1ccc2ccccc2c1)Nn1cnnc1	/	-42	96	114
47	Cc1sc2nc(SCc3cc(=O)[nH][nH]3)n(Cc3ccco3)c(=O)c2c1C	101	/	80	87
48	c1ccc(-c2noc(CSc3nc4ccccc4o3)n2)cc1	107	-15	80	93
49	Cc1cc(C)nc(NC(c2cccc(Cl)c2)c2cc(C)sc2NC(=O)c2ccccc2)n1 (stereo not given)	102	-2	/	/
50	CCOC(=O)c1cccc(NC(=O)N2CCC(CN3CCCCCC3)CC2)c1	110	/	106	117
51	Cc1nc(-c2ccc(N3CCN(C(=O)c4cncc(Br)c4)CC3)cc2)no1	103	-26	/	/
52	CCCCCOc1ccc(NC(=O)Cc2csc(C)n2)cc1	102	-3	90	99
53	CCOc1ccc(S(=O)(=O)N(C)c2ccc(OCC(=O)NCCCn3ccnc3)cc2)cc1	/	3	102	125
54	CCOC(=O)c1c(NC(=O)c2cc(OC)c(OC)c(OC)c2)sc2c1CCCC2	101	-14	96	106
55	CCn1c(SCC(=O)OCC(=O)N2CCc3ccccc32)nnc1-c1cccs1	/	-15	84	91
56	O=C(c1ccc(Cl)cc1)N1CCCOC1	105	-26	84	95
57	Clc1ccc(-c2cn3ncsc3n2)cc1	108	-9	93	102
58	C=CCn1c(SC2CCOC2=O)nc2scc(C3CC3)c2c1=O (stereo not given)	/	-11	90	97
59	COc1ccc(CNC(=O)Cc2ccc(NC(=O)N3CCSc4ncccc43)cc2)cc1OC	105	/	90	93
60	CCS(=O)(=O)Nc1cnc(N(C)CCCc2c(C)nn(C)c2C)c(C(=O)O)c1	111	-27	/	/

Next part
cpd	mol	GIV Gai3 FP	HCMV NEC inh	Sa growth inh second temp	Sa growth inh
61	CCc1nc2ccccc2c(C(=O)OC2CCCC2=O)c1C (stereo not given)	/	-18	80	100
62	CC1CCN(c2nn3c(=O)c(C(=O)NCCc4ccccc4)cnc3s2)CC1	100	/	84	96
63	O=C(NC1CCCC1)C1CCCN(c2ccc3cc(S(=O)(=O)N4CCCCC4)ccc3n2)C1 (stereo not given)	105	-30	/	/
64	O=C(c1cccs1)N1CCCn2c(SCc3ccccc3)nnc21	102	-34	87	111
65	COc1ccccc1-n1c(-c2ccc(C)cc2)cn2c3c(=O)n(C)c(=O)n(C)c3nc12	105	/	91	75
66	CCCCCc1c(C)nn(-c2nc(CC(=O)Nc3nc4ccccc4[nH]3)cs2)c1C	102	-24	/	/
67	Cc1cccc(Nc2ncncc2C#N)c1C	109	15	102	101
68	O=C(CSc1nc2ccccc2s1)NC1CCCCC1	/	8	88	105
69	COc1ccc(CN2C(=O)c3cccnc3C2=O)cc1S(=O)(=O)N1CC(=O)Nc2ccccc21	107	-59	92	86
70	CC(C)=C1Cc2cc3ccc(=O)oc3cc2O1	105	-14	70	90
71	Cc1cc(=O)oc2cc(OCC(O)CNCc3cn4c(C)csc4n3)ccc12 (stereo not given)	/	-33	89	87
72	O=C(Cn1c(=O)n(Cc2ccc3c(c2)OCO3)c(=O)c2ncccc21)c1ccc(Cl)cc1	105	-20	/	/
73	Cc1ccc2c(c1)-c1c(cnn1CC(=O)Nc1cccnc1Cl)CO2	101	-13	94	104
74	CCc1ccccc1NC(=O)CN(C)C(=O)Cn1cnc2ccc(Cl)cc2c1=O	/	-23	96	77
75	CN(CCNC(=O)c1nn(C)c2c1CCc1sccc1-2)C1CCCCC1	106	-7	/	/
76	COc1ccc(-n2c(C)cc(-c3csc(NC(=O)CC(C)(C)C)n3)c2C)cc1	/	-25	62	75
77	COc1ccc(N2CCN(C(=O)C3c4ccccc4C(=O)N4CCc5cc(OC)c(OC)cc5C34)CC2)cc1 (stereo not given)	102	1	90	96
78	Cc1cccc(CN2C(=O)C3CCCC3=Nc3cc(C)c(C)cc32)c1 (stereo not given)	106	0	/	/
79	CC1CN(C(=O)CC(C)c2ccccc2)CC(C)O1 (stereo not given)	100	-12	96	105
80	CCCCn1cnc2cc(NCc3cc(OC)ccc3OC)ccc21	95	-6	56	108
81	Oc1ccccc1CN(Cc1ccco1)CC(O)COc1ccc(Cl)cc1Cl (stereo not given)	/	-25	54	84
82	O=C(Cn1ccn2nc(-c3ccc4c(c3)OCO4)cc2c1=O)NC1CCCC1	102	-35	/	/
83	Nc1ccc(CC2C(=O)Nc3ccccc32)cc1 (stereo not given)	103	-51	80	88
84	Cc1cc(C(=O)OCC(=O)N2CCCCC2)c(C)n1-c1ccccc1	/	-26	96	98
85	NCCc1c(C(=O)O)[nH]c2ccc(Br)cc12	/	2	89	90
86	CNC(=O)Cn1nc(C)n2cccc2c1=O	98	-21	84	94
87	COc1ccccc1CNC(=O)COc1ccccn1	/	-3	91	108
88	Cc1ccc(N2CCn3c(nc4ccccc43)C2)cc1N	102	-37	/	/
